# Screening data as filed in PubChem BioAssay.
# TDP1 inh = blocks human tyrosyl-DNA phosphodiesterase 1. AID 485290. Potency, µM (doses to about 130 µM), for the others: at the top dose activity change, negative = inhibition, usual class: inhibitors. 350,000 tested, 0.28% active. recombinant TDP1, AlphaScreen DNA substrate cleavage. Q9NUW8; note: nearly all actives have a fitted effect of over 40% in size
# Target sequence (Q9NUW8 whole entry, looked up): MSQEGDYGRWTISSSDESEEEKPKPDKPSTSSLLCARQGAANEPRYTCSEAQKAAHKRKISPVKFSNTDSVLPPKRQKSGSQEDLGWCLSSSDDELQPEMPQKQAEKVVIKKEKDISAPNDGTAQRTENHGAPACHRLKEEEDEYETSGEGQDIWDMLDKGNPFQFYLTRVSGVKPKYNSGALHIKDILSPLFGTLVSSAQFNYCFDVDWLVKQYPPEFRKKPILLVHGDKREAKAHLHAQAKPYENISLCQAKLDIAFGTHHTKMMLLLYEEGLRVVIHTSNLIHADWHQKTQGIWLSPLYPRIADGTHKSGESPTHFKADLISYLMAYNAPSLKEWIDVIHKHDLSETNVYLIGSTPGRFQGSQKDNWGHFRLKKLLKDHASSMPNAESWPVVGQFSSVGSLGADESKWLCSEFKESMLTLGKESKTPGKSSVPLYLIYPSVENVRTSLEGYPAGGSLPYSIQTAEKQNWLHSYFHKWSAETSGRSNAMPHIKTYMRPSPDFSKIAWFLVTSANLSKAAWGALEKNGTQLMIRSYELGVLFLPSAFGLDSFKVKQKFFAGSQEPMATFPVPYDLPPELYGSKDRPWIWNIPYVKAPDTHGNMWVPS
#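 Recombinant human Tdp1 (E. coli-expressed, 1 nM final) preincubated with compounds 15 min at room temperature, then 5'-biotin/3'-phosphotyrosine-FITC DNA substrate (15 nM final) added for 5 min. AlphaScreen beads (10 ug/ml final) added 10 min; cleavage lowers signal.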
# N370S GC mod = inhibitors or activators of N370S glucocerebrosidase for Gaucher disease. N370S GC spleen homogenate, 4MU-glucoside fluorescence. AID 2101. P04062. 330,000 tested, 0.092% active. Potency, µM (top dose mostly 59.4 µM), for inactives: top-dose activity change, negative = inhibition, usual class: inhibitors;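 note: 0% = full enzyme activity and -100% = no enzyme basal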
# * = called active by the depositor; nt = no result given; & = joins results of further samples; [ ] = dose if it differs, or a comment. Calls come from the whole dose curve; as a rule, active = well fitted curve in the direction sought with a large enough effect; inconclusive = small, poorly fitted or top-dose-only effect, or another doubt; inactive = no such curve, though single readings can be large; an effect the other way counts as inactive or inconclusive. Unless noted, % is set by controls: 0 for no effect and ±100 for the full control effect; potency is the fitted concentration of half-maximal effect.
No.	SMILES	N370S GC mod	TDP1 inh
1	COc1cccc(C(=O)N(C)C(C)c2nc3ccccc3s2)c1 (stereo unspecified)	-4%	9%
2	COc1ccc(NC(=O)NNC(=O)COc2ccc3cc(Br)ccc3c2)cc1OC	-7%	1%
3	C=C(C)CNC(=S)N/N=C(\C)c1ccc(OC)cc1	-4%	7%
4	CN(Cc1cccc(F)c1)C(=O)c1cc(=O)[nH]c2ccccc12	-8%	-1%
5	Cc1ccc(C)c(NC(=O)c2ccccc2NC(=O)C2CCCO2)c1 (stereo unspecified)	-7%	6%
6	CCN(CC)CCNC(=O)C12CC3CC(CC(C3)C1)C2	4%	2%
7	COc1ccc(C)cc1NC(=O)NC1CCCCCCC1	11%	4%
8	CCc1ccc(NC(=O)CCS(=O)(=O)c2ccc(Br)cc2)cc1	-17%	nt
9	CCn1c(SCC(=O)c2ccc(C)cc2)nnc1-c1ccncc1	-3%	2%
10	CCCCNC(=O)c1onc(CSc2ccc(F)cc2)c1C(=O)NCCCC	16%	nt
11	Cc1ccc(OCC(=O)NCC(=O)Nc2ccc(F)c(F)c2F)c([N+](=O)[O-])n1	-1%	3%
12	CC1CCN(C(=O)Cn2c(=O)n(CCCC(=O)NCc3ccco3)c(=O)c3sccc32)CC1	0%	10%
13	COc1ccc(N2CCN(CCNC(=O)Nc3ccc([N+](=O)[O-])cc3OC)CC2)cc1	-12%	nt
14	O=C(C1CCCCC1)N1CCC(c2nc3c(nnn3Cc3c(F)cccc3Cl)c(=O)[nH]2)CC1	3%	-5%
15	Cc1cc2oc(=O)cc(CN3CCc4ccccc43)c2cc1Cl	2%	4%
16	Nc1ccc(Nc2ccccc2N)cc1	-25%	8%
17	COc1cc(/C=C/C(=O)NC(C)C2CC3CCC2C3)cc(OC)c1OC (stereo unspecified)	-2%	-5%
18	O=C(CN(C(=O)CCC(=O)Nc1ccccn1)c1ccc(F)cc1)NCCc1ccccc1	-21%	nt
19	Cn1c2c(c(=O)[nH]c1=O)C(NC(=O)c1ccco1)(C(F)(F)F)C(=O)N2 (stereo unspecified)	-15%	1%
20	CSC(=NC1CCCCC1)NS(=O)(=O)c1ccccc1	4%	5%
21	CCOc1ccc(CCNC(=O)COC(=O)COc2ccccc2C)cc1OCC	0%	1%
22	Cc1nnc(SCC2=C(C(=O)O)N3C(=O)C(NC(=O)C(C)n4nc(C(F)(F)F)cc4C)C3SC2)s1 (stereo unspecified)	5%	nt
23	COc1ccccc1CNC(=O)CCN=C1NS(=O)(=O)c2ccccc21	nt	0%
24	CN(C)c1ccc(S(=O)(=O)N2CCCCC2)cc1NC(=O)COc1ccccc1F	25%	-2%
25	CCOc1cccc(NC(=O)C2CC(=O)N(C)C2)c1 (stereo unspecified)	2%	3%
26	CC1C2Cn3c(nc4ccccc43)C1N(C(C)C)O2 (stereo unspecified)	-3%	6%
27	O=C(O)c1ccc(C(=O)O)c(C(=O)c2ccc(NC(=O)c3ccccc3)cc2)c1	-2%	nt
28	Cn1c(CC(=O)Nc2ccccc2F)nnc1SCC(=O)NC1CCCC1	1%	nt
29	COc1cc(NC(=O)CS(=O)(=O)c2ccccc2)cc(OC)c1OC	5%	4%
30	CC(=O)Nc1cccc(Oc2ccc3c(c2)C(=O)N(CCC(=O)O)C3=O)c1	5%	9%
31	O=C(Cn1cnc2c(oc3ccccc32)c1=O)c1ccccc1	1%	1%
32	Cc1ccc(S(=O)(=O)Cn2nnnc2CN2CCN(Cc3ccc4c(c3)OCO4)CC2)cc1	13%	2%
33	O=S(=O)(Nc1ccc(Cc2ccncc2)cc1)c1ccc(Cl)s1	-10%	7%
34	Cc1cc(-c2ccccc2)n(-c2ccc(C(=O)N3CCN(c4ncccn4)CC3)cc2)n1	-1%	6%
35	CC1(C)Cc2nc3sc(C(=O)NCCO)c(N)c3cc2CO1	0%	-2%
36	O=c1c2c(-c3cccs3)csc2ncn1-c1ccccc1	-2%	-3%
37	CCOC(=O)c1sc(NC(=O)CCCn2nc([N+](=O)[O-])cc2C)c(C(=O)OCC)c1C	12%	0%
38	COc1ccc(/C=C/C=C2\NC(=S)NC2=O)cc1	-15%	5%
39	Cc1ccc([N+](=O)[O-])cc1NC(=O)c1ccoc1C	9%	5%
40	Oc1ccc(Cl)cc1CNc1cccc2cccnc12	-10%	6%
41	COc1cccc(NC(=O)CNC(=O)c2cccs2)c1	20%	3%
42	CC(=O)NC1(C(F)(F)F)C(=O)Nc2c1c(=O)[nH]c(=O)n2-c1ccccc1 (stereo unspecified)	3%	2%
43	CCCCNC(=O)Cn1cnc2c(cnn2-c2ccc(C)cc2)c1=O	-7%	1%
44	C/C(=N\NC(=O)c1cc(-c2cccs2)nc2ccccc12)c1ccccn1	-3%	8%
45	CC(=O)c1c(C)[nH]c(C(=O)OCC(=O)Nc2c(C)n(C)n(-c3ccccc3)c2=O)c1C	1%	nt
46	CC(=O)N/C(=C/c1ccc(OS(=O)(=O)c2ccc(C)cc2)cc1)C(=O)NCCCO	-27%	6%
47	COc1ccc(NS(=O)(=O)c2ccc(NC(=O)c3ccccc3Br)cc2)nn1	4%	-5%
48	COC(=O)C1C(=O)c2c(n[nH]c2C)CC1(C)C (stereo unspecified)	2%	0%
49	COc1ccccc1CCNC(=O)Cn1c(=O)oc2ccccc21	1%	18µM*
50	O=C(NC(=S)NCc1ccccc1)c1cccnc1	-5%	1%
51	CCOc1ccc(OCCC(=O)N2CCN(S(=O)(=O)c3ccc(OCC)cc3)CC2)cc1	-5%	-18%
52	N#Cc1nc(Cc2ccccc2)oc1NCCN1CCOCC1	3%	3%
53	C(=N\N1CCN(c2ccccn2)CC1)/c1ccco1	11%	2%
54	O=C1c2ccccc2C(=O)N1CC1c2ccccc2CCN1C(=O)N1CCOCC1 (stereo unspecified)	0%	0%
55	Cn1c(N)c(C(=O)c2ccc(C#N)cc2)c(=O)n(C)c1=O	-2%	0%
56	C=CCn1c(SCCC)nc(O)cc1=O	-2%	-2%
57	CC(C)(CNS(=O)(=O)c1ccc(F)cc1)CNS(=O)(=O)c1ccc(F)cc1	-9%	3%
58	CC(C)[C@H](NC(N)=O)C(=O)Nc1cccc(S(=O)(=O)N2CCOCC2)c1	-14%	1%
59	O=C(NCC1CCN(Cc2cccc(Cl)c2)CC1)Nc1ccc(Cl)cc1	-19%	nt
60	Cc1cc(C(F)(F)F)cc(NNC(=O)NC(=O)c2ccccc2Cl)n1	-6%	4%

# (list continues)
No.	SMILES	N370S GC mod	TDP1 inh
61	Cc1c(C(=O)O)cc(C(C)(C)C)n1CCSCCO	-9%	3%
62	Cc1[nH]c(=O)[nH]c(=O)c1S(=O)(=O)N1CCCC(C(=O)NCc2ccc3c(c2)OCO3)C1 (stereo unspecified)	-2%	6%
63	COc1ccc(OCC(=O)NC(CC(=O)O)c2ccc(OC)c(OC)c2)cc1 (stereo unspecified)	4%	-1%
64	O=C(N1CCOCC1)C12CCC3CC(CC(C3)C1)C2	5%	1%
65	COc1ccc(S(=O)(=O)N2CCN(CCc3ccccc3)CC2)c(OC)c1	-15%	4%
66	CC(=O)N/C(=C\c1ccccc1)C(=O)OCC(=O)N1CCCCCC1	5%	3%
67	O=C(CN1CCOCC1)Nc1ccccc1Sc1ccccc1	-3%	5%
68	COc1ccc2nc(NC3=NCCC3)sc2c1	-3%	7%
69	O=C(N/N=C/c1ccc(O)cc1O)NC12CC3CC(CC(C3)C1)C2	15%	nt
70	CCOc1ccc(C(=O)N2CCCC2)cc1	10%	4%
71	COc1ccc(C(=O)NCCNC(=O)c2cc(OCC(F)(F)F)ccc2OCC(F)(F)F)cc1	-10%	-1%
72	COc1ccc(/C=C(\C#N)C(=O)c2cccn2C)cc1	3%	nt
73	O=C(CCC1COc2ccccc2O1)NCc1ccccc1 (stereo unspecified)	-5%	7%
74	COc1ccc(OC)c(NC(=O)CSc2nnc(-c3cccnc3)s2)c1	4%	-3%
75	O=C(COC(=O)c1cncc(Br)c1)NCc1ccccc1	-1%	-1%
76	O=C(CSc1nncs1)NC1CCCCCCC1	nt	3%
77	COc1ccc2nc(SCC(=O)Nc3ccccc3OC)[nH]c2c1	12%	11%
78	CCCCn1c(SCC(=O)N2CC(=O)Nc3ccccc32)nnc1-c1ccoc1C	2%	-3%
79	COc1ccc2nc(NC(=O)C3COc4ccccc4O3)sc2c1 (stereo unspecified)	-12%	7%
80	O=c1[nH]c(=O)c2nc3ccccc3nc2[nH]1	3%&-4%&27%	-1%
81	COc1ccc(-c2csc(N3CCN(Cc4ccc5c(c4)OCO5)CC3)n2)cc1	-2%	9%
82	Cc1ccc(NC(=O)COC(=O)c2ccc([N+](=O)[O-])s2)c(C)c1	-1%	-2%
83	Cc1cnc(NC(=O)CCCSc2nc3ccccc3s2)s1	6%	6%
84	CCNC(=O)NC(=O)C(C)Sc1ncc(C(F)(F)F)cc1Cl (stereo unspecified)	1%	-2%
85	COc1ccc(CCN2C(=O)NC(NS(=O)(=O)c3ccccc3)(C(F)(F)F)C2=O)cc1OC (stereo unspecified)	3%	11%
86	Cc1nc2sc3c(=O)[nH]nnc3c2c(C)c1Br	-16%	nt
87	O=C(NNS(=O)(=O)c1ccc(Cl)cc1)c1cccc(S(=O)(=O)N2CCOCC2)c1	4%	nt
88	Cc1ccc(NC(=O)c2ccco2)c(NC(=O)C2CCCO2)c1 (stereo unspecified)	-19%	-3%
89	CCN1CCN(C(=O)c2ccccc2Nc2ccc(SC(F)F)cc2)CC1	-18%	-3%
90	Cc1cnc(C(=O)OCC(=O)c2ccc[nH]2)cn1	-7%	-1%

# From no. 75 to 81, as listed above:
No.	SMILES	N370S GC mod	TDP1 inh
75	O=C(COC(=O)c1cncc(Br)c1)NCc1ccccc1	-1%	-1%
76	O=C(CSc1nncs1)NC1CCCCCCC1	nt	3%
77	COc1ccc2nc(SCC(=O)Nc3ccccc3OC)[nH]c2c1	12%	11%
78	CCCCn1c(SCC(=O)N2CC(=O)Nc3ccccc32)nnc1-c1ccoc1C	2%	-3%
79	COc1ccc2nc(NC(=O)C3COc4ccccc4O3)sc2c1 (stereo unspecified)	-12%	7%
80	O=c1[nH]c(=O)c2nc3ccccc3nc2[nH]1	3%&-4%&27%	-1%
81	COc1ccc(-c2csc(N3CCN(Cc4ccc5c(c4)OCO5)CC3)n2)cc1	-2%	9%

# (cont.)
No.	SMILES	N370S GC mod	TDP1 inh
91	O=c1[nH]c2ccccc2nc1N1CCOCC1	0%	-3%
92	CCCC[C@H]1CCCO[C@@](C(=O)NCc2ccccn2)(C(F)(F)F)C1	8%	2%
93	C=CC[N+]1(CC#Cc2ccccc2)CCCC1	13%	0%
94	O=C(CSc1nc2c([nH]c3ccccc32)c(=O)n1-c1cccc(Cl)c1)N1CCOCC1	-18%	-3%&-4%
95	CCc1ccccc1N(CC(=O)NCC1CCCO1)C(=O)CCC(=O)Nc1cc(C)on1 (stereo unspecified)	1%	9%
96	Nc1ncncc1-c1ccc([N+](=O)[O-])cc1	4%	2%
97	COC(=O)c1ccc(CNC(=O)C23CC4CC(CC(C4)C2)C3)cc1	2%	9%
98	Cn1c(=NC(=O)CN2C(=O)C3CC=CCC3C2=O)sc2ccccc21 (stereo unspecified)	17%	2%
99	CC(C)c1ccc(S(=O)(=O)N2CCN(C(=O)c3cc([N+](=O)[O-])ccc3N3CCOCC3)CC2)cc1	-4%	6%[56.1 µM]
100	COCCNC(=O)c1ccc2c(c1)ncn2-c1ccc(F)c(F)c1	-3%	1%
101	COCCN(Cc1cc2cccc(C)c2[nH]c1=O)C(=O)c1ccccc1	-18%	1%
102	Cc1c(N2C(=O)/C(=C\C3CC=CCC3)SC2=S)c(=O)n(-c2ccccc2)n1C (stereo unspecified)	-6%	-3%
103	CCc1cccc(CC)c1NC(=O)c1ccc(-n2cncn2)nc1	-9%	3%
104	CCN(CC)S(=O)(=O)c1ccc(C(=O)NCc2ccc3c(c2)OCO3)cc1	-2%	5%
105	COc1ccc(/C=C2/C(=O)N(c3ccccc3)N=C2C)cc1OC	-3%	nt
106	S=C(NCc1ccco1)Nc1ccc(Cl)c(Cl)c1	4%	10%
107	N#CCCSCc1ccc(C(=O)O)o1	3%	1%
108	COCCn1c(=NC(=O)C2COc3ccccc3O2)sc2cc(S(N)(=O)=O)ccc21 (stereo unspecified)	-2%	-2%
109	Cc1ccc(S(=O)(=O)N2CCC(C(=O)NCCCN3CCCCCC3)CC2)cc1	-6%	0%
110	COc1cccc(NC(=S)N2C3CCCC2CC(NC(=O)C2CC2)C3)c1 (stereo unspecified)	0%	2%
111	COc1ccc(NC(=O)N2CC(C)OC(C)C2)cc1OC (stereo unspecified)	-22%	2%
112	CCOC(=O)/C(=N\Nc1cc(Cl)ccc1Cl)N1CCOCC1	8%	6%
113	O=C(C1=C(O)C(=O)N(CCCn2ccnc2)C1c1ccccc1)c1ccco1 (stereo unspecified)	1%	3%
114	COc1ccc(CN(C)CC(O)COc2ccc(C(=O)c3ccccc3)cc2)c(OC)c1OC (stereo unspecified)	-10%	0%
115	O=C(CSc1nc2ccccc2o1)Nc1nc(-c2ccccc2)cs1	8%	4%
116	O=C(COC(=O)c1ccc2ccccc2n1)NCc1ccccc1	-19%	3%
117	CCCCNS(=O)(=O)NC(=O)C1=C(N2CCCC2)COC1=O	nt	-1%
118	COc1ccc(Cc2nnc(SCc3ccc([N+](=O)[O-])cc3)o2)cc1	-10%	3%

# This is a subset, and most or all hits are left out here.
